ClpP mod = qHTS Assay for Activators of ClpP | Potency, µM (doses to about 57.5 µM), without a hit: at the highest dose activity change, negative = active | hit rate 1.9% among 340,000 | purified B. subtilis ClpP, FRET peptide cleavage, 20 min | ATP-dependent Clp protease proteolytic subunit (Bacillus subtilis (strain 168)), P80244 | AID 651965, 2013; active = well fitted falling curve with a large enough effect; inconclusive = small, poorly fitted or top-dose-only effect; inactive = no such curve, though single readings can be large or run the other way; note: potency is the fitted concentration of half-maximal effect; the source files actives as falling curves though it sought activators and does not explain the sign; nearly all actives have a fitted effect of over 65% in size; many hits overshoot -100%
Target sequence (P80244 whole entry, looked up): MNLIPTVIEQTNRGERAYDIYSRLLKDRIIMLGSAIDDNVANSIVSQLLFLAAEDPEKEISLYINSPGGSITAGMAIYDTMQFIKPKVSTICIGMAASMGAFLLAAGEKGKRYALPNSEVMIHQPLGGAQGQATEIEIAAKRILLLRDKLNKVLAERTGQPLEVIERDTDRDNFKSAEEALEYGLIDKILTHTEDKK
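Purified B. subtilis ClpP, 10 microg/mL final in Tris/HCl pH8 with KCl, BSA, glycerol and Tween-20, cleaved an Abz/nitrotyrosine-quenched decapeptide. Fluorescence (ex 320, em 430) was read at 0 and 20 min at room temperature. Delta was normalized to 5.8 microM ADEP and DMSO/no-enzyme controls.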
gsp antag = gsp mutant antagonism. gsp-mutant cells, cAMP HTRF, 30 min; control for the full effect not named in the record. AID 624288. Potency, µM (titrated, usually from 76.9 µM), for inactives: at the highest dose activity change, negative = inhibition, hits mostly inhibitors. hit rate 0.4% among 340,000; active = falling curve of any shape with a large fitted effect; inconclusive = falling curve, mostly with a smaller effect; inactive = flat or rising curve; cell line not stated here;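 note: intracellular cAMP measured with PDE inhibitor Ro 20-1724 present during compound exposure; potency is the fitted concentration of half-maximal effect; % is set by controls: 0 for no effect and ±100 for the full control effect; nearly all actives have a fitted effect of over 65% in size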
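Measurement of cellular cAMP by homogeneous time-resolved fluorescence following a 30 min compound exposure at 37C. The PDE inhibitor […] was present throughout; the assay buffer was DPBS with 0.05% BSA and 0.005% Tween 20.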
TRPML1 inh = human mucolipin-1 channel inhibition | Q9GZU1 | activity change, negative = inhibition, % (concentration not given with the values) | TRPML1-inducible cells, Ca2+ dye fluorescence, FDSS; stronger effect = lower value; inhibition of EC80 agonist-evoked calcium signal | AID 624415 | hit rate 0.02% among 390,000; in the data active means activity change below about -50%; inconclusive means about -30% to -50%; inactive means above about -30%;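 note: stimulus is agonist 54-4 at its EC80 concentration; % is set by controls: 0 for no effect and ±100 for the full control effect; compound concentration not given in the record; the text of the record puts the active cut at -80%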
Target sequence (Q9GZU1 whole entry, looked up): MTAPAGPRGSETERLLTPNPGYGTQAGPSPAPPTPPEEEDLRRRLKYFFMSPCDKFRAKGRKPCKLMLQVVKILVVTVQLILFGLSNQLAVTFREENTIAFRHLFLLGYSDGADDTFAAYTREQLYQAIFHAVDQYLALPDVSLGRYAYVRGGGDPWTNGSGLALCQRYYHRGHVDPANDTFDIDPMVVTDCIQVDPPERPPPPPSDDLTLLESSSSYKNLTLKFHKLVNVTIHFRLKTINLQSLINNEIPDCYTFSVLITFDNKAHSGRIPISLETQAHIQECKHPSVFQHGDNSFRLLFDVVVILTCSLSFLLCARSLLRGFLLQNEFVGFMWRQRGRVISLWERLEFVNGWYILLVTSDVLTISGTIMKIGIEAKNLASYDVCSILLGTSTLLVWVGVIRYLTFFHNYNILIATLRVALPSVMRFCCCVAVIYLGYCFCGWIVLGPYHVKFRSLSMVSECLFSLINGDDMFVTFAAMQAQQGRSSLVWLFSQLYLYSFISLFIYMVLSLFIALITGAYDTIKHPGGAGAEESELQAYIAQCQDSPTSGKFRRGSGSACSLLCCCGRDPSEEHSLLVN
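TRPML1-DL cells, Tet-induced overnight (~16 h, 37 °C) at 1,500 cells/well, were loaded with Ca8 no-wash dye plus quencher for 45-90 min at room temperature. Compounds were pinned during FDSS kinetic reading; agonist 54-4 at EC80 (4 uM final) then added.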
gsp agonist = activates gsp, the McCune-Albright syndrome mutation; gsp mutant cells, cAMP HTRF, 30 min; control for the full effect not named in the record; Potency, µM (titrated, usually from 76.9 µM), for inactives: at the highest dose activation (cAMP increase), most hits filed as activators; hit rate 0.13% among 340,000; AID 624287; active = well fitted activation curve with a large enough effect; inconclusive = small, poorly fitted or top-dose-only effect, or another doubt; inactive = no such curve, though single readings can be large or run the other way; cell line not stated here;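 note: phosphodiesterase inhibitor Ro 20-1724 added with compounds to block cAMP breakdown; potency is the fitted concentration of half-maximal effect; nearly all actives have a fitted effect of over 60% in size; about a fifth of the inactives were tested at one dose only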
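Cells in DMEM/10% FBS with G418 were pretreated with compounds in DMSO plus […] (300 uM stock) for 30 min at 37C. cAMP was measured by HTRF (cAMP-d2 plus anti-cAMP antibody-K) after 30 min at room temperature.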
TRPML1 agonist = activates the human TRPML1 channel; Q9GZU1; TRPML1-expressing cells, Ca2+ dye fluorescence, FDSS; host cell line not named in the record; reference of the full effect not given here; activation, % (no concentration beside the values); hit rate 0.12% among 410,000; in the data active = activation above about 50%; inconclusive = about 30% to 50%; inactive = below about 30%; note: 0% is about no effect; the text of the record puts the active cut at 80%
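Agonist activity was taken from a 110 s kinetic Ca2+ dye read on the FDSS after pinning compounds onto TRPML1-DL cells. The cells were seeded at 1,500/well with Tet inducer, incubated about 16 h, then dye-loaded at room temperature.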
Menin-MLL FL inh = inhibitors of human menin-MLL interaction, wild-type MLL peptide; Fluorescence polarization, fluorescein-MLL peptide displacement from menin; FP activity change, % at 61.4 µM; 290,000 tested, under 10 active; inconclusive = falling polarisation curve, or a change in total fluorescence; inactive = total fluorescence flat and polarisation flat or rising; no compound was filed as active; the % refers to the polarisation; negative = inhibition;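 note: % of control where 0% means no effect; inhibitors lower the polarisation; unlabelled MLL peptide was the positive control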
* hit, by the source's call; ? = inconclusive; · = not tested or not shown; & = joins results of further samples; [ ] = another dose, or the depositor's remark. Compounds as they come; about 2.1% have a hit in one of these screens.

SMILES | ClpP mod | gsp antag | TRPML1 inh | gsp agonist | TRPML1 agonist | Menin-MLL FL inh
COc1cc(OC)cc(-c2nnc(SCC(=O)Nc3ccc(C(=O)O)cc3)s2)c1 | · | -20% | 32 | ? | 0.8 | -0.1
CN1CCN(c2ncc3c(n2)CC(c2ccccc2F)CC3=O)CC1 (stereo not drawn) | 4.0% | 2% | -11 | -5%[15.4 µM] | -0.1 | 2.3
CCc1cccc(NC(=O)C2CCN(c3ncnc4sc(C)c(C)c34)CC2)c1 | -8.4% | ? | 13 | 4% | 2.3 | ·
CS(=O)(=O)Nc1ccc(C2=NN(C(=O)CCCC(=O)O)C(c3cccs3)C2)cc1 (stereo not drawn) | 3.3% | -3% | 9 | ? | 0.4 | 3.7
CCOC(=O)N1CCN(C(=O)C2CCCN(S(=O)(=O)c3ccc(OCC)cc3)C2)CC1 (stereo not drawn) | 1.0% | -10% | 3 | -1% | 0.5 | -0.6
Cc1ccc(NCN2C(=O)C(=O)c3ccccc32)nc1 | 2.5% | 5% | -2 | ? | -0.4 | 0.1
CCOC(=O)C1CCC(CN(Cc2cccc(Br)c2)S(=O)(=O)c2ccc(Cl)cc2)CC1 (stereo not drawn) | -0.9% | · | 27 | · | 1.6 | ·
COc1cc(C2c3cc4c(cc3OC(NNC(N)=S)C2C)OCO4)cc(OC)c1OC (stereo not drawn) | -2.0% | 5% | 25 | 20% | 1.6 | ·
CCOc1ccc(-c2nc(CSc3nncs3)cs2)cc1OC | -12% | -6% | -11 | 13% | 1.2 | 3.1
CC/C(=C\C(=O)c1ccncc1)Nc1ccc(Br)cc1 | -0.9% | -8% | 27 | -2% | -0.2 | -4.6
CCCCCCN1C[C@@H](O)[C@H](n2cc(-c3ccc(F)cc3)nn2)C[C@@H]1c1ccc(OC)cc1 | 1.7% | · | 13 | -60%[inhibitor] | -0.3 | ·
O=C(Nc1ccc(Cc2ccncc2)cc1)c1ccc(Cl)c([N+](=O)[O-])c1 | -1.5% | ? | -4 | -2% | 1.2 | 0.3
CCOC(=O)C1CCCCN1C(=O)c1ccc2nc(Cc3ccc(OC)cc3)oc2c1 (stereo not drawn) | -0.2% | -3% | 1 | -1% | 0.7 | ·
Cc1cc(=O)cc(C)n1-c1ccccc1N1CCOCC1 | 5.2% | 13% | 2 | -24% | 1.0 | -2.1
O=c1[nH]c(NCc2ccco2)nnc1Cc1ccccc1Cl | -1.8% | 20% | -3 | -24% | 2.5 | -1.6
CCn1c(CNC(=O)c2cccs2)nnc1SCC(=O)Nc1ccc(Cl)cc1 | -1.4% | -12% | 7 | -16% | 2.0 | -0.2
COC(=O)c1ccc(NCc2cc(O)ccc2O)cc1O | -1.1% | 5% | 11 | -12% | 0.1 | ·
CCOc1ccccc1NC(=O)N1CCN(C)c2ncccc21 | -24% | · | -2 | · | -0.8 | ·
CN(C)C(=O)c1ccc(NC(=O)c2cccnc2)cc1 | 0.1% | 17% | -8 | -27% | -0.2 | -0.9
COC(=O)CSC(=S)N1CCCC(C)C1 (stereo not drawn) | 0.7% | 6% | 10 | -3% | 0.1 | 5.5
COc1ccc(Cl)cc1NC(=O)CCC(=O)N1CCOc2ccccc21 | -0.1% | · | 14 | · | -0.2 | ·
CN1C(=O)/C(=C2/C=Cc3ccccc3N2CCCS(=O)(=O)O)SC1=S | 22µM* | -5% | 0 | ? | -0.3 | 12
Cc1cc(NC(=O)c2cccs2)cc(-c2nc3cc(Cl)ccc3o2)c1O | -1.3% | · | -13 | · | 0.9 | ·
Nc1ncc2c(n1)CC(c1ccco1)CC2=O (stereo not drawn) | -0.3% | -6% | 19 | -7%[15.4 µM] | 0.3 | 4.0
O=C(NNc1ncnc2c1cnn2-c1ccccc1)c1ccco1 | -1.7% | -6% | 17 | -13%[15.4 µM] | -0.9 | -0.5
Additional compounds:
SMILES | ClpP mod | gsp antag | TRPML1 inh | gsp agonist | TRPML1 agonist | Menin-MLL FL inh
CSc1cccc(NC(=O)C2CCN(S(=O)(=O)c3cnc[nH]3)CC2)c1 | -3.0% | 10% | -8 | -6% | 0.6 | ·
Cc1ccc(-n2nc3c(=O)n(CC(=O)NCCC4=CCCCC4)nc(C)c3c2C)cc1 | 1.0% | -9% | -13 | 0% | 0.4 | 0.1
CCn1nnc(NC(=O)C(c2ccccc2)c2ccccc2)n1 | -13% | -1% | 2 | 3%[15.4 µM] | 0.8 | -4.7
O=C(Nc1ncn[nH]1)c1cc(S(=O)(=O)Nc2ccc(Cl)cc2)ccc1Cl | -2.0% | -2% | 31 | 22% | 0.9 | 5.6
COC(=O)c1c(NC(=O)CN2CCN(Cc3ccc4c(c3)OCO4)CC2)sc(C)c1C | -4.1% | ? | -7 | -41% | 1.8 | 0.1
CCCCN(CCCC)C(=O)C[n+]1cccc(/C=N/O)c1 | 0.7% | 7% | -11 | 31% | 0.5 | -5.3
CC(C)CC(=O)N[C@H](C(=O)N[C@H](C(=O)N[C@@H](CC(C)C)[C@@H](O)CC(=O)N[C@@H](C)C(=O)N[C@@H](CC(C)C)[C@@H](O)CC(=O)O)C(C)C)C(C)C | 0.6% | 1% | 4 | · | -0.1 | 5.8&1.3
O=C(CC1N=C2c3ccccc3N=C(SCc3ccc(F)cc3)N2C1=O)NCc1ccc2c(c1)OCO2 (stereo not drawn) | -14% | · | -4 | · | 2.0 | ·
COc1ccc(C(C)=O)cc1CSc1nnc(-c2ccncc2)n1C | -3.9% | 7% | 36 | 4% | 0.3 | 0.3
CN1Cc2c(N3CCOCC3)nc(SCCC#N)c(C#N)c2CC1(C)C | · | -13% | 26 | 12%[15.4 µM] | 0.9 | -29
COc1ccc(C(=O)NCc2ccccc2CN2CCCC2)cc1S(=O)(=O)Nc1ccc(C)cc1 | -0.3% | -1% | 2 | 1% | -0.5 | ·
Cc1ccc(OCC(=O)NCCCNC(=O)c2ccc(C)nc2)cc1 | · | 10% | 4 | 6%[15.4 µM] | -0.6 | -5.8
CC(C)[C@H](NC(=O)N1c2ccccc2NC(=O)[C@@H]1C(C)C)C(=O)N[C@@H](Cc1c[nH]c2ccccc12)C(=O)O | -1.4% | -2% | · | · | · | -1.5
Cc1ccccc1S(=O)(=O)Nc1nc2ccccc2nc1N1CCOCC1 | -7.7% | ? | 30 | -4% | -0.7 | -2.2
CCOC(=O)Cc1csc(NC(=O)c2cc(C)on2)n1 | 0.0% | -1% | -17 | 29% | -0.4 | ·
Cc1cnc(C(=O)Nc2ccccc2C(=O)N2CCOCC2)cn1 | -0.5% | -15% | -7 | -9% | -0.4 | 4.3
COc1ccc(-c2nnc(SCC(=O)N3CCCC3=O)n2N)cc1OC | 1.0% | 6% | -9 | -16% | 0.9 | ·
CCCCn1c(N)c(N(CCOC)C(=O)CN(C)CC(=O)Nc2ccc(Cl)c(Cl)c2)c(=O)[nH]c1=O | -3.6% | 8% | 22 | -8% | 0.6 | ·
CN(Cc1ccccc1)C(=O)CN1CCN(S(=O)(=O)c2ccccc2F)CC1 | 0.8% | · | -22 | -57%[inhibitor] | -0.8 | ·
CC(C)NS(=O)(=O)c1ccc2c(c1)NCC2 | -3.2% | 10% | -2 | -2% | 0.3 | 5.5
Cc1ccc(NC(=O)C(C)NC(=O)OCc2ccccc2)cc1C (stereo not drawn) | · | -5% | -2 | 0%[15.4 µM] | 0.8 | 5.1
COc1ccc(CN2C(=O)c3ccccc3C2C(=O)NCC2CCCO2)c(OC)c1 (stereo not drawn) | 0.4% | -4% | 20 | ? | -0.2 | 0.6
COc1ccc(N2CCN(C(=O)c3oc4ccccc4c3C)CC2)cc1 | · | 15% | 11 | -16%[15.4 µM] | 1.1 | 1.4
CN(C)c1ccc(C(C(=O)NCC2CCCO2)N(Cc2ccco2)C(=O)c2snc(C(N)=O)c2N)cc1 (stereo not drawn) | · | -9% | -17 | -5%[15.4 µM] | -0.1 | ·
Cc1cccc(-n2cnc3cc(C(=O)NCC4CCCO4)ccc32)c1 (stereo not drawn) | -5.9% | · | 0 | 14% | -0.9 | ·
C/C(=N/Nc1ccccc1[N+](=O)[O-])c1ccc(C)c([N+](=O)[O-])c1 | 0.6% | 3% | -15 | 20% | -0.3 | -2.2
CN(N=O)c1ccc(C=C2C=Cc3ccccc32)cc1 | 1.6% | 12% | 42 | -32% | 0.1 | ·
Nc1nc(-c2ccccc2)c(-c2ccccc2)o1 | · | 11% | 11 | -2%[15.4 µM] | 0.5 | 5.7
CCOC(=O)N1CCN(C(=O)c2ccc3nc(N4CCCCC4)sc3c2)CC1 | ? | -11% | 0 | 17% | 0.8 | 4.5

From PubChem BioAssay
